# CtBP-E1A blk – blocks the CtBP interaction with E1A. AlphaScreen GST-E1A/His-CtBP binding, 1536-well; active compounds read low; control for the full effect not named in the record. AID 651724. activity change, % (test concentration not listed). 340,000 tested, 0.49% active; in the data active means activity change below about -65%; inconclusive means about -30% to -65%; inactive means above about -30%; also: % is scaled to controls: 0 for no effect and ±100 for the full control effect
#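 AlphaScreen with 125 nM GST-E1A and 125 nM His-CtBP (5X stocks) in Tris pH 8.0, 300 mM NaCl, BSA, Tween 20, TCEP. Compounds preincubated 2 h at 37 deg C, then glutathione donor/nickel acceptor beads added for 1 h at 37 deg C in dark.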
# TRPML1 blocker – human mucolipin-1 channel inhibition; Q9GZU1; 390,000 tested, 0.02% active; activity change, negative = inhibition, % (no concentration beside the values); TRPML1-inducible cells, Ca2+ dye fluorescence, FDSS; active compounds read low; inhibition of EC80 agonist-evoked calcium signal; in the data active means activity change below about -50%; inconclusive means about -30% to -50%; inactive means above about -30%;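 also: stimulus is agonist 54-4 at its EC80 concentration; % is scaled to controls: 0 for no effect and ±100 for the full control effect; compound concentration not given in the record; the text of the record puts the active cut at -80%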
# Target sequence (Q9GZU1 whole entry, looked up): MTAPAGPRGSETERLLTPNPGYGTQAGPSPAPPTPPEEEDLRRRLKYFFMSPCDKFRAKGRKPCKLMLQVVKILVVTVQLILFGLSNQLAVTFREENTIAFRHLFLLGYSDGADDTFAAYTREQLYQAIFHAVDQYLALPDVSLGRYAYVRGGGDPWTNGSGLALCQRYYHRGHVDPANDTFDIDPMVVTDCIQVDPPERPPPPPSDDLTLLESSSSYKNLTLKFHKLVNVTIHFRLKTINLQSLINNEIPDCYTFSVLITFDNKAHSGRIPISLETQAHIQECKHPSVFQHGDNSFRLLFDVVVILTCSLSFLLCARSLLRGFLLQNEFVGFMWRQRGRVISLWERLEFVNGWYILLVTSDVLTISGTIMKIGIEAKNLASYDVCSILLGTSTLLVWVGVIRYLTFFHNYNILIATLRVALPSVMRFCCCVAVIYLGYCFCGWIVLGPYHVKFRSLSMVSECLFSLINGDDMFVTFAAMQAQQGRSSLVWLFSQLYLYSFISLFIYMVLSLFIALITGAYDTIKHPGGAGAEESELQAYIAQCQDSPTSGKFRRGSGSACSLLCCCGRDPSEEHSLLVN
#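 TRPML1-DL cells, Tet-induced overnight (~16 h, 37 °C) at 1,500 cells/well, were loaded with Ca8 no-wash dye plus quencher for 45-90 min at room temperature. Compounds were pinned during FDSS kinetic reading; agonist 54-4 at EC80 (4 uM final) then added.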
# Six1-Eya2 blk – Six1/Eya2 interaction inhibition. Q15475+O00167. AlphaScreen GST-Six1/His-Eya2 binding, biochemical; active compounds read low; control for the full effect not named in the record. activity change, % (no concentration beside the values). 360,000 tested, 0.56% active. AID 651725; in the data active = activity change below about -65%; inconclusive = about -30% to -65%; inactive = above about -30%; also: % is scaled to controls: 0 for no effect and ±100 for the full control effect
#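 Compounds are tested against tagged Six1 and Eya2 proteins bridged by glutathione donor and nickel acceptor beads; after a one-hour incubation at 37 °C without light, AlphaScreen emission is recorded.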
# PINK1 expr mod – PINK1 expression modulation. PINK1 immunofluorescence, high-content cytometry, 24 h. Potency, µM (highest dose often 76.6 µM), inactives show at the highest dose activation (PINK1 increase), actives largely listed as activators. 410,000 tested, 0.2% active. AID 624263; active = well fitted activation curve with a large enough effect; inconclusive = small, poorly fitted or top-dose-only effect; inactive = flat fitted curve, though single readings scatter; cell line not stated here;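 also: potency is read from the fitted curve at half-maximal effect; % of control where 0% means no effect; nearly all actives have a fitted effect of over 65% in size; a mitochondrial uncoupler was the plate control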
#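 PINK1 protein, normally rapidly degraded, was detected by immunofluorescence after 24 hour compound treatment of a stable cell line. Titration data (5 concentrations) came from laser-scanning cytometry, with CCCP-treated wells as controls.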
# D2 ag – agonists of human D2 dopamine receptor (beta-arrestin); P14416; DiscoveRx PathHunter D2 beta-arrestin, luminescence, 90 min; 100% = 57 uM dopamine signal; activation, % (no concentration beside the values); 360,000 tested, 0.084% active; AID 624465; in the data active = activation above about 40%; inconclusive = about 15% to 40%; inactive = below about 15%; also: compound concentration not given in the record; the text of the record calls up to 30% inactive
# Target sequence (P14416 whole entry, looked up): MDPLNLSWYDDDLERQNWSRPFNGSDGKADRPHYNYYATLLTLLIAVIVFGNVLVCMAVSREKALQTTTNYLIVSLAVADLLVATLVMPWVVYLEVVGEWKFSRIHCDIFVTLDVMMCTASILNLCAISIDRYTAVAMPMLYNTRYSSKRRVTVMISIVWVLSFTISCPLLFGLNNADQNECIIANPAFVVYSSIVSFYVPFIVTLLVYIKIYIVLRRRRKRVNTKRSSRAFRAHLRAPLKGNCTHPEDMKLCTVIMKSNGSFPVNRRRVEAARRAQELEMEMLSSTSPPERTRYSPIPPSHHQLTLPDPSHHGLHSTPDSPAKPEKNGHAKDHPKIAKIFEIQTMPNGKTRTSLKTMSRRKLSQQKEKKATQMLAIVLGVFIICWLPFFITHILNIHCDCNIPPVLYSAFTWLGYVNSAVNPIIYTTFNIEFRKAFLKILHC
#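 DiscoveRx PathHunter D2 beta-arrestin cells (2,100/well) attached overnight, then compound-stimulated 90 min at 37 C in HBSS/10 mM HEPES/0.1% Tween-20 buffer; beta-galactosidase complementation read by luminescence after 1 h at ambient temperature. Dopamine 57 uM final (EC100) as control.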
# TRPML1 agonist – human mucolipin-1 channel agonism; Q9GZU1; TRPML1-expressing cells, Ca2+ dye fluorescence, FDSS; host cell line not named in the record; reference of the full effect not given here; activation, % (concentration not given with the values); 410,000 tested, 0.12% active; in the data active = activation above about 50%; inconclusive = about 30% to 50%; inactive = below about 30%; also: 0% is about no effect; the text of the record puts the active cut at 80%
#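 Agonist activity was taken from a 110 s kinetic Ca2+ dye read on the FDSS after pinning compounds onto TRPML1-DL cells. The cells were seeded at 1,500/well with Tet inducer, incubated about 16 h, then dye-loaded at room temperature.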
# Active calls of the source: *; ? = inconclusive; nt = not tested or not shown; [ ] = another dose, or the depositor's remark.
SMILES,CtBP-E1A blk,TRPML1 blocker,Six1-Eya2 blk,PINK1 expr mod,D2 ag,TRPML1 agonist
CC1(C(=O)Nc2ccc(Cl)c(Cl)c2)CCN1C(=O)C1CCCCC1 (stereo not given),4,nt,1,19%,-1.4,-0.9
Nc1nc(Nc2cccc(Cl)c2)nc(NCc2ccco2)c1[N+](=O)[O-],12,-6,-6,-1.4%,-6.3,3.2
COC(=O)c1c(NC(=O)CCCOc2ccccc2C)sc2c1CCC2,nt,-12,nt,1.1%,nt,-0.3
Cc1ccccc1S(=O)(=O)N(C)C[C@@H]1OCc2cnnn2CCCC(=O)N([C@@H](C)CO)C[C@@H]1C,-11,21,14,-2.4%,-2.7,1.1
CCCCN(CCCC)C(=O)c1nsnc1-c1ccccc1O,0,-2,4,11%[38.3 µM],-5.3,1.8
Cc1c(CCNC(=O)c2ccc(C(F)(F)F)cc2)sc2nc(-c3ccc(F)cc3)nn12,nt,6,nt,1.2%,nt,-0.2
Cc1ccc(N2C(=O)C(Cc3ccccc3)NC2=S)cc1 (stereo not given),-15,-1,-1,2.5%[38.3 µM],-2.2,-0.5
Cc1nn(-c2ccccc2)c(OC(=O)c2ccccc2)c1S(=O)(=O)c1ccccc1,nt,-5,nt,1.9%,nt,-0.1
CC(=O)c1nc(N2C(=O)CC(Cc3cccc(C)c3)C2=O)sc1C (stereo not given),2,-7,5,-3.9%[38.3 µM],-3.7,-0.1
Cc1ccc(S(=O)(=O)CCC(=O)OCC(=O)N2CCc3ccccc32)cc1,-6,-7,11,0.8%,-4.0,-0.7
O=C(O)c1cc(N/N=C/c2ccc(-c3ccccc3)cc2)ccc1Cl,nt,11,-11,4.6%,7.5,0.9
COc1ccc(N2C(N)=C(C#N)C(c3cc(CN4CCOCC4)cs3)C3=C2CCCC3=O)cc1 (stereo not given),nt,-20,nt,3.6%,nt,-0.7
C[C@H]1CN(S(=O)C(C)(C)C)[C@H](CCO)/C1=C\CCO (stereo not given in full),6,-11,1,1.2%,-1.2,-0.5
COC(CNC(=O)c1ccc2c(=O)n(Cc3ccc4c(c3)OCO4)c(=S)[nH]c2c1)OC,-2,15,1,7.6%,-6.2,-0.6
CCOc1ccc(-n2nnc3c(=O)n(CC(=O)N4CCCc5ccccc54)cnc32)cc1,0,-1,-2,13%,-0.9,1.3
COc1ccc(CCC(=O)Nc2ccc(Br)cn2)cc1,3,-15,5,5.5%[38.3 µM],-1.9,0.2
O=C(CSc1nnc(-c2cccnc2)n1Cc1ccco1)N1c2ccccc2Sc2ccccc21,?,-3,?,-6.3%[38.3 µM],-1.1,-0.4
CSc1nsc(SCC(=O)Nc2ccc(C(N)=O)cc2)n1,-3,22,18,-2.8%,-1.0,1.4
C[C@H]1CN([C@@H](C)CO)C(=O)CCCn2nncc2CO[C@@H]1CN(C)S(=O)(=O)c1cccc(F)c1,5,-9,4,0.7%,-4.2,0.3
O=C(CCC1CCCCC1)Nc1cccc(C(=O)Nc2ccc(C(=O)O)cc2)c1,0,5,-2,0.8%,-2.0,-0.5
Cc1ccccc1OCC(=O)NNC(=O)CCc1ccccc1,nt,-3,-2,0.6%,4.4,0.3
C[C@H](NC(=O)Nc1ccc2c(c1)OCCO2)C(=O)O,9,-11,6,0.0%[38.3 µM],-1.2,-0.3
CC(C)CC(=O)N1CCN(c2ccc([N+](=O)[O-])c(NCc3ccccc3)c2)CC1,-21,13,-24,1.0%,-1.1,1.0
CCN=C1SC(CC(=O)NC2CCCCC2)C(=O)N1CC (stereo not given),2,0,2,3.1%[38.3 µM],-0.5,-0.5
COc1ccc(Cl)cc1Nc1ncnc2sc(C)c(S(=O)(=O)N3CCC(C)CC3)c12,15,35,13,-0.5%,-2.1,0.7
COc1ccc(-c2ccc(C(=O)Nc3ccc(Cl)cc3)c3occc23)c(C)c1,1,nt,-2,-0.5%,-5.5,0.8
CNC(=O)NC(=O)COC(=O)c1cccc(S(=O)(=O)N2CC3(C)CC2CC(C)(C)C3)c1 (stereo not given),1,-1,2,-7.9%,-0.1,0.6
O=C(Nc1ccc(N2CCOCC2)cc1)c1ccc(S(=O)(=O)NCc2ccco2)cc1,5,18,2,6.4%,-1.8,-0.3
COc1ccccc1CN(Cc1cccnc1)S(=O)(=O)c1ccc(-n2cnnn2)c(OC)c1,3,15,11,-0.7%,4.1,3.8
O=C(c1ccc(Br)s1)N1CCN(Cc2ccc3c(c2)OCO3)CC1,-3,-51*,-4,0.2%[38.3 µM],-0.1,-0.6
O=C(c1ccccc1)N(Cc1ccccc1)c1ccccn1,4,0,4,0.2%[38.3 µM],2.2,2.2
CN(C)CC(C)(C)CNS(=O)(=O)c1ccc(Cl)cc1,3,-1,10,0.1%,-4.8,-0.3
O=C(C1=C[C@@H](c2ccc(C(F)(F)F)cc2)C[C@@H](OCCCCO)O1)N1CCOCC1,3,3,1,3.2%,-1.3,-0.7
C=CC[C@@H](CC(=O)NCCO)C(=O)N[C@H](C)COC(=O)[C@@H](CC=C)Cc1ccc(F)cc1,26,-8,20,1.4%,1.4,-0.3
CC(CNC(=O)c1ccco1)NC(=O)c1ccco1 (stereo not given),1,-11,10,-0.4%,-4.2,0.7
O=C(O)COc1ccc2occ(C(=O)c3ccccc3)c2c1,7,4,-4,0.9%,-4.6,-1.0
Cc1ccc(-c2c3c(=O)n(C)c(=O)n(C)c3cn2-c2ccccc2O)cc1,4,2,-3,0.6%,3.4,0.1
COc1ccc(C(O)CNc2ccc(C)cc2)cc1 (stereo not given),-5,5,-13,0.7%,-1.4,2.2
CC(C)[C@H](NC(=O)N1CC(=O)Nc2ccccc21)C(=O)N1CCC(C(=O)O)CC1,0,21,6,4.1%,-11,0.0
Cc1ccccc1CN1c2ccccc2S(=O)(=O)c2ccccc21,nt,13,nt,1.9%,nt,0.2
COc1ccc(Cn2nnnc2C(c2ccccc2Cl)N2CCN(C)CC2)cc1 (stereo not given),2,-3,8,-4.2%,-0.7,-0.5
CCOC(=O)c1cc(CC)sc1NC(=O)COC(=O)c1cnccn1,2,19,5,1.6%,-3.7,-0.8
CCc1ccc(/C=N/NC(=O)c2nnn(-c3nonc3N)c2CN2CCOCC2)cc1,nt,30,-3,1.6%,3.8,0.5
Cc1ccc(NC(=O)CSc2nnc(-c3ccncc3)o2)cc1,4,22,9,36%[38.3 µM],-2.6,-0.3
CCOC(=O)Cc1c(C)nc2c(-c3cccc(Br)c3)c[nH]n2c1=O,-12,3,-11,-0.9%,-1.5,2.0
O=C(CN1CCCC1)Nc1ccc(S(=O)(=O)N2CCCCC2)cc1,3,4,1,-0.2%,4.3,0.2
Cc1nc2ccc(S(=O)(=O)NC(CC(C)C)C(=O)N3CCN(c4ccc(F)cc4)CC3)cc2s1 (stereo not given),nt,3,nt,0.7%,nt,0.6
Cc1sc2ncn(CC(=O)OC(C)C(=O)NC(C)(C)C)c(=O)c2c1C (stereo not given),5,-5,-2,1.0%,-3.4,-0.1
CCOC(=O)N1CCN(C(=O)CN(c2cccc(C)c2)S(=O)(=O)c2ccccc2)CC1,2,0,2,-2.0%,-2.2,-0.9
O=C(c1c[nH]c(C(=O)N2CCN(c3ccccc3F)CC2)c1)c1cccc(Cl)c1Cl,nt,12,-10,-1.4%,4.5,2.9

# Three entries already listed, ordered by their value in D2 ag, rising:
structure | D2 ag
CCOC(=O)c1cc(CC)sc1NC(=O)COC(=O)c1cnccn1 | -3.7
CCOC(=O)N1CCN(C(=O)CN(c2cccc(C)c2)S(=O)(=O)c2ccccc2)CC1 | -2.2
C[C@H](NC(=O)Nc1ccc2c(c1)OCCO2)C(=O)O | -1.2

# More entries.
SMILES,CtBP-E1A blk,TRPML1 blocker,Six1-Eya2 blk,PINK1 expr mod,D2 ag,TRPML1 agonist
COC(=O)CSc1nc(NC#N)nc(NC(C)(C)C)n1,1,0,0,1.3%,-2.3,0.2
Cc1ccc(C)c(N(CC(=O)NC(C)(C)C)C(=O)CNC(=O)c2cccs2)c1,4,1,4,4.7%,-2.2,-0.3
CC1=C(C(=O)OC(C)C)C(c2cccs2)N2C(=O)C(C)SC2=N1 (stereo not given),-7,-10,-12,0.0%,-2.6,-0.3
O=C1OC(C(=O)NCc2ccccc2)Cc2ccccc21 (stereo not given),11,-17,0,2.4%,1.9,-0.4
O=C(Nc1cccc(Cl)c1)c1ccc2c(c1)CCN2S(=O)(=O)c1ccccc1,nt,28,nt,-0.3%,nt,8.0
CN(C)S(=O)(=O)N1CCC(Oc2ccc(C(=O)NC3Cc4ccccc4C3)cc2)CC1,nt,12,1,5.8%,2.1,1.5
CCCC1c2ccc(C)n2CCN1C(=O)Nc1ccc(F)cc1 (stereo not given),-5,15,5,-0.3%,-2.0,1.5
CCN(CC)S(=O)(=O)c1ccc(OCC(=O)NC(=O)Cc2ccccc2)c([N+](=O)[O-])c1,?,14,-17,-0.6%,3.9,0.7
CN(CC(=O)Nc1ccc(F)c(F)c1F)C(=O)Cc1ccc2c(c1)OCCO2,-6,0,1,-0.2%,0.5,-0.5
Nc1c(C(=O)NCCc2ccccc2)nnn1Cc1ccccc1,-3,16,-1,7.2%,-2.3,11
CCC(CC)C(=O)c1c[nH]c(C(=O)OC)c1,5,12,3,0.7%,-2.0,-0.8
Cc1noc(C)c1C(=O)Nc1nc(-c2cccs2)cs1,nt,1,2,5.9%,-4.8,1.1
COc1cc(NC(=O)CCc2c(C)nc3nc(C)nn3c2C)cc(OC)c1,-18,-13,-13,-1.4%,-2.0,0.2
COc1ccccc1-c1cnc(C(O)c2ccc(Cl)c(F)c2)[nH]1 (stereo not given),-4,nt,-8,4.1%,-2.1,-1.2
Cc1cc2nc(-c3ccc[nH]c3=O)n(Cc3cccc(F)c3)c2cc1C,-17,32,-2,-0.6%,0.2,0.5
CCOC(=O)N1CCC(N(CCN(C)C)C(=S)Nc2cc(Cl)cc(Cl)c2)CC1,2,10,1,3.4%,-5.4,-0.2
CC1CCN(CCCn2c(=S)[nH]c3c(sc4ccccc43)c2=O)CC1,3,4,-25,-0.1%,-4.3,-0.2
O=C1c2ccc(Cl)cc2S(=O)(=O)c2cccc(C(=O)N3CCN(c4ccc(Cl)cn4)CC3)c21,-10,4,-24,-1.1%,-1.4,-0.2
O=C(NCC1CCCO1)c1sc2ccccc2c1Cl (stereo not given),15,7,15,-0.8%,-1.1,0.1
Cc1ccc(Nc2nc(N)nc(CN3CCCCCC3)n2)c(C)c1,-12,31,-17,0.3%,0.0,1.1
COc1ccc(OC)c(NC(=O)CCNS(=O)(=O)c2cccc3nonc23)c1,-2,5,-2,-0.5%,-4.0,-0.6

# Source: PubChem
